KCNQ2 block: KCNQ2 potassium channel inhibitors, primary screen, cell-based, CHO-K1, FluxOR thallium flux, B-score (AID 2156). B-score at 10 µM. 1.1% of 310,000 active. 20 min; active compounds read low; only compounds with negative scores are shown here; some inactives read as strong as hits;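 active = fluorescence ratio B-score at most minus 3 library SDs, with starting brightness B-score within 2 library SDs, cut at about -5.5 in these data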
Target sequence (O88943 whole entry, looked up): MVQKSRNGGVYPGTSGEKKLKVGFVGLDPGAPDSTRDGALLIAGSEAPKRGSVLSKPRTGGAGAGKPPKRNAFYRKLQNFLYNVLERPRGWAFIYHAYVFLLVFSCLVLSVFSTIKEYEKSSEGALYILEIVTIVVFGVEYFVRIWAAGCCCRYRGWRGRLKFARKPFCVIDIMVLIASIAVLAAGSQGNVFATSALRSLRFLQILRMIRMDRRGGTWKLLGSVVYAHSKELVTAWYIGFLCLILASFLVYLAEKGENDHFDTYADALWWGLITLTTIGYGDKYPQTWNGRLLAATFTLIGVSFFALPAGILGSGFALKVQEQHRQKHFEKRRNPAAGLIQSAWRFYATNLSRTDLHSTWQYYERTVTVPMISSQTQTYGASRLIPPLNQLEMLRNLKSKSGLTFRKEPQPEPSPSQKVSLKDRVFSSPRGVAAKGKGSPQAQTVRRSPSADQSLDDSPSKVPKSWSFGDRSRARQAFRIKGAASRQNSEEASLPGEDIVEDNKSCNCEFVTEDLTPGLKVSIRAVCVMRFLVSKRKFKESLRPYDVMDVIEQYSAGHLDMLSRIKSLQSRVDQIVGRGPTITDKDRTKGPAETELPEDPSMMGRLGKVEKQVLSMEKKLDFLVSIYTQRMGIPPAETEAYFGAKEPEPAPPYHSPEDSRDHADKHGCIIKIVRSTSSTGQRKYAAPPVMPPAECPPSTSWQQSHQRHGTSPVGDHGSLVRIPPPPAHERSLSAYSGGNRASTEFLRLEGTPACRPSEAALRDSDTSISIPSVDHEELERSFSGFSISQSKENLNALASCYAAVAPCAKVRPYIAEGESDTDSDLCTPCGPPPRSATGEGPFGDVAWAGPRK
KCNQ2 block baseline: also measured in KCNQ2 block; calls as there; B-score; measured here: initial fluorescence intensity artifact check;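 brightness before thallium and not channel activity; 0 = typical well and far values either way flag optical interference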
Starred values were filed as active, the others as inactive; i = inactive.

SMILES	KCNQ2 block	KCNQ2 block baseline
CCN(C(=O)c1ccco1)C1C2CC3CC(C2)CC1C3 (stereo not drawn)	i	-0.96
O=C(NCc1ccccc1F)c1ccc2c(c1)OCO2	i	-0.22
CC1S/C(=N/N=C/c2ccco2)N(Cc2ccc(F)cc2)C1=O (stereo not drawn)	i	-1.3
CC1(C)CC(NS(=O)(=O)c2ccc(C(C)(C)C)cc2)CC(C)(C)N1	i	0.06
COc1ccc(C(OCC(O)CNCCc2ccccc2)c2ccc(OC)cc2)cc1 (stereo not drawn)	i	1.7
COc1ccccc1-c1csc(-n2ncc(C#N)c2N)n1	i	2.1
O=C(COc1ccc(Br)cc1)N(Cc1cccs1)C1CCS(=O)(=O)C1 (stereo not drawn)	i	-0.36
COc1cccc(NC(=O)Cn2c(CCC(=O)O)ccc2-c2ccc(Cl)cc2)c1	i	-3
C[N+]1([O-])[C@@H]2Cc3cc4c(cc3[C@@H]1Cc1cc3c(cc12)OCO3)OCO4 (stereo partly drawn)	i	0.12
CC(C)c1nc(SCC(=O)NC(=O)NC(C)(C)C)n[nH]1	i	0.03
Cc1cc(NC(=O)Cn2nc(C(=O)O)c3ccccc3c2=O)c([N+](=O)[O-])cc1C	i	0.25
CC(C)(C)NC(=S)N/N=C/c1c(Cl)cccc1Cl	i	-1.2
N/C(=N\OC(=O)c1cccc(C(F)(F)F)c1)c1cnccn1	i	-0.02
CC(C)(C)NC(=O)Cn1nnc(-c2cccs2)n1	i	1.9
Cn1c(SCc2c(Cl)cccc2Cl)nnc1-c1cccs1	i	0.22
COc1cccc(-c2noc(C3CCCN(C(=O)CC(C)(C)C)C3)n2)c1 (stereo not drawn)	i	0.01
Brc1ccc(NC(c2ccccc2)c2ccncc2)cc1 (stereo not drawn)	i	0.7
CCCc1nc(SCC(=O)N2CCCc3ccccc32)c2c(=O)n(C)c(=O)n(C)c2n1	i	0.62
CC(=O)Nc1cc[n+](CC(=O)c2cccc([N+](=O)[O-])c2)cc1	i	0.86
COc1ccc(C(=O)NNC(=O)C2CCCO2)cc1 (stereo not drawn)	i	0.07
O=C(O)CCC1OC(=O)C(O)=C1c1ccccc1 (stereo not drawn)	i	0.36
O=C1CN(c2nc(-c3cccs3)nc3sc4c(c23)CCCC4)CCN1	i	-3.5
O=C(NCCN1CCOCC1)c1ccc2c(c1)N(Cc1cccc(F)c1)C(=O)c1ccccc1S2	i	2.1
COc1ccccc1C1CCN(Cc2ccc(Cl)c(Cl)c2)CC1	i	-0.17
C[C@H](NC(=O)c1nc[nH]c1C(=O)N1CCN(C(=O)OC(C)(C)C)CC1)C(=O)OCc1ccccc1	i	-0.66

More entries.
SMILES	KCNQ2 block	KCNQ2 block baseline
O=C(COC(=O)CNC(=O)c1ccc(Br)cc1)Nc1nnc(-c2ccccc2)o1	i	-1.4
CC(C)Cn1c(SCC(=O)N2CCCc3ccccc32)nc2ccccc2c1=O	i	0.64
CCOC(=O)C/C(C)=N\Nc1ccc([N+](=O)[O-])cc1[N+](=O)[O-]	i	-0.09
COc1ccc(CN2CCN(C(=O)c3cccc4ccccc34)CC2)c(OC)c1OC	i	1.7
CS(=O)(=O)c1ccc(-c2nnc(NC(=O)C3=COCCO3)o2)cc1	i	-0.23
COc1ccc(-n2ncc3c2CC(C)(C)CC3NC(=O)CCC2=NNC(=O)CC2)cc1 (stereo not drawn)	i	0.59
O=S(=O)(c1cccc(F)c1)N1CCN(C(=S)NCc2ccccc2)CC1	i	0.33
Cn1c(SCC(=O)NCC2CCCO2)nnc1-c1c[nH]c2ccccc12 (stereo not drawn)	i	1.7
COc1ccc(CN2C(=O)C(C)S/C2=N/N=C/c2ccco2)cc1 (stereo not drawn)	i	0.32
COc1ccccc1OCC(=O)c1[nH]c(C)c(C(C)=O)c1C	i	-0.25
COc1cc(/C=C2\CCc3c2nc2ccccc2c3C(=O)O)cc(OC)c1OC	i	-0.47
CCOc1ccccc1NC(=O)NC1CCCc2ccccc21 (stereo not drawn)	i	0.85
Cc1cc(C)n(CCNCc2c(C(=O)N3C[C@@H](C)O[C@@H](C)C3)nc3ccc(Cl)cn23)n1	i	-0.25
Cc1ccc(S(=O)(=O)N2CCC(C(=O)OC(C)C(=O)N3CCOCC3)CC2)cc1 (stereo not drawn)	i	0.81
CN(C1CCCCC1)S(=O)(=O)c1cc2c3c(c1)CCN3C(=O)CC2	i	0.35
Cc1occc1-c1nnc(SCC(=O)NC(C)(C)C)n1C(C)c1ccccc1 (stereo not drawn)	i	1.1
COc1ccc(CC(NC(C)=O)C(=O)NC2CCN(C(=O)c3ccncc3)CC2)cc1OC (stereo not drawn)	i	0.29
Cc1[nH]c2ccc(C(=O)NCCN3CCOCC3)cc2c1C	i	0.35
C/C(=C/c1ccccc1)C(=O)N1CCN(c2ccccc2F)CC1	i	0.03
CCc1cccc(NC(=O)Cn2c3[n+](c4ccc(C(F)(F)F)cc42)CCCCC3)c1	i	-0.4
COc1cccc(CN2C(=O)C(C)N(C(=O)c3c(F)cccc3F)c3ccccc32)c1 (stereo not drawn)	i	-0.3
COc1ccc(Cl)cc1Nc1nc(-c2cccnc2)cs1	i	0.36
CSc1ncccc1C(=O)OCC(=O)c1cc(C)n(CC2CCCO2)c1C (stereo not drawn)	i	0.02
O=C(N/N=C\c1cccc(F)c1)c1ccc(-c2ccccc2)cc1	i	1.8
Cc1cccc2cc(CN(CCN3CCOCC3)C(=O)NCc3ccccc3)c(=O)[nH]c12	i	-0.89

15 entries from above, with two lines to a compound.
Sequence of screens – KCNQ2 block	KCNQ2 block baseline
COc1ccc(-n2ncc3c2CC(C)(C)CC3NC(=O)CCC2=NNC(=O)CC2)cc1 (stereo not drawn)
  i	0.59
O=S(=O)(c1cccc(F)c1)N1CCN(C(=S)NCc2ccccc2)CC1
  i	0.33
Cn1c(SCC(=O)NCC2CCCO2)nnc1-c1c[nH]c2ccccc12 (stereo not drawn)
  i	1.7
COc1ccc(CN2C(=O)C(C)S/C2=N/N=C/c2ccco2)cc1 (stereo not drawn)
  i	0.32
COc1ccccc1OCC(=O)c1[nH]c(C)c(C(C)=O)c1C
  i	-0.25
COc1cc(/C=C2\CCc3c2nc2ccccc2c3C(=O)O)cc(OC)c1OC
  i	-0.47
CCOc1ccccc1NC(=O)NC1CCCc2ccccc21 (stereo not drawn)
  i	0.85
Cc1cc(C)n(CCNCc2c(C(=O)N3C[C@@H](C)O[C@@H](C)C3)nc3ccc(Cl)cn23)n1
  i	-0.25
Cc1ccc(S(=O)(=O)N2CCC(C(=O)OC(C)C(=O)N3CCOCC3)CC2)cc1 (stereo not drawn)
  i	0.81
CN(C1CCCCC1)S(=O)(=O)c1cc2c3c(c1)CCN3C(=O)CC2
  i	0.35
Cc1occc1-c1nnc(SCC(=O)NC(C)(C)C)n1C(C)c1ccccc1 (stereo not drawn)
  i	1.1
COc1ccc(CC(NC(C)=O)C(=O)NC2CCN(C(=O)c3ccncc3)CC2)cc1OC (stereo not drawn)
  i	0.29
Cc1[nH]c2ccc(C(=O)NCCN3CCOCC3)cc2c1C
  i	0.35
C/C(=C/c1ccccc1)C(=O)N1CCN(c2ccccc2F)CC1
  i	0.03
CCc1cccc(NC(=O)Cn2c3[n+](c4ccc(C(F)(F)F)cc42)CCCCC3)c1
  i	-0.4

Next part:
SMILES	KCNQ2 block	KCNQ2 block baseline
Cc1ccccc1NC(=O)Nc1cc(-c2ccccc2)nn1C	i	0.95
O=C(COc1ccc(Cl)cc1)NCc1nnc(SCC(=O)Nc2ccc3c(c2)OCCO3)o1	i	-0.19
CC(=O)N1CN(C2CCS(=O)(=O)C2)Cc2c1sc1c2CCCC1 (stereo not drawn)	i	0.47
O=C(O)/C=C/C(=O)Nc1ccc(OCc2ccccc2)cc1	i	1.2
N#Cc1nc(/C=C/c2ccccc2)oc1NCCCN1CCOCC1	i	1.3
CCC(=O)c1ccc(OCC(=O)OCC(=O)N2c3ccccc3CC2C)cc1 (stereo not drawn)	i	-2.4
CC1(C)Cc2ccccc2C(=NC(Cc2ccccc2)C(=O)O)N1 (stereo not drawn)	i	-2.5
CC(OC(=O)c1ccccc1NS(=O)(=O)c1cccc(N)c1)C(=O)N(C)Cc1ccccc1 (stereo not drawn)	i	-0.8
O=S1(=O)C[C@@H](O)[C@@H](Nc2ccccc2)C1	i	-0.34
CCOC(=O)C1=NN(C(C)=O)C2(CC(=O)N(c3cc(C)cc(C)c3)C2=O)C1 (stereo not drawn)	i	1.1
CC(C)COP(=O)(OCC(C)C)C(O)c1ccccc1F (stereo not drawn)	i	0.56
O=C(/C=C/c1ccc2c(c1)OCO2)N1CCOCC1	i	-1.9
COc1cccc(NC(=O)COc2ccc3c(c2)CCC3)c1	i	1.3
CC(=O)Nc1ccc(NC(=O)C(C)OC(=O)CCCOc2ccc(Cl)c(C)c2)cc1 (stereo not drawn)	i	0.4
O=[N+]([O-])c1nn(-c2ccccc2)n(O)c1=NCc1ccc2c(c1)OCO2	i	0.33
O=C(c1ccc2nccnc2c1)N1CCN(Cc2ccc3c(c2)OCO3)CC1	i	1.2
O=C(Nc1ccc(N2CCN(C(=O)c3ccco3)CC2)cc1)c1ccccc1	i	3.3
O=C(N/N=C1\CCCCc2ccccc21)c1ccccn1	i	1.9
CCOC(=O)N/N=C(\C)c1ccc(OC(F)F)cc1OC(F)F	i	0.66
COc1ccc(-c2nc3ccccc3c(=O)n2CCc2ccc(O)cc2)cc1	i	0.71
COc1ccc(N=CC2=C(O)CC(c3ccccc3)CC2=O)c(OC)c1 (stereo not drawn)	i	1.9
CC(Nc1cc(N2CCN(S(C)(=O)=O)CC2)ccc1[N+](=O)[O-])c1ccccc1 (stereo not drawn)	i	-0.04
Cc1cc(SCC(=O)Nc2ccc(O)cc2)n2ncc(-c3ccccc3)c2n1	i	-0.08
NC(=S)Nc1cccc2[nH]ncc12	i	-1.2
COc1ccc(-c2noc3c2-c2nc(C(C)C)sc2CC3)cc1	i	-0.46

(cont.)
SMILES	KCNQ2 block	KCNQ2 block baseline
COc1ccc(C(=O)CCN2CCN(c3ccc(OC)cc3)CC2)cc1	i	0.61
Oc1ccc(Cl)cc1N=Cc1sc2ccccc2c1Cl	i	-1.3
CCOc1cnc(C(=O)NNC(=O)C(Br)C(C)C)o1 (stereo not drawn)	i	2.4
O=C(c1ccc(=O)[nH]c1)N(Cc1ccco1)C1(C(=O)NC2CCCCC2)CCCCC1	i	1.7
Cc1ccc(NC(=S)NCCc2ccc(S(N)(=O)=O)cc2)c(C)c1	i	-0.03
[O-]/C(=C(\C(=S)Nc1ccc(SC(F)F)cc1)[n+]1ccccc1)c1cc(Cl)ccc1Cl	i	-3
CC(=O)C(Sc1nnnn1-c1ccc(O)cc1)c1ccccc1 (stereo not drawn)	i	-0.2
Cc1cc(C)n(C(=O)CCCCCCCC(=O)n2nc(C)cc2C)n1	i	1.2
CC(=O)n1cc([C@H]2C=C(C(=O)N3CCOCC3)O[C@@H](OCc3ccc(CO)cc3)C2)c2ccccc21	i	-0.69
Cc1ccc(CN2C(=O)CCC2(C)C(=O)NCc2cccnc2)cc1 (stereo not drawn)	i	-0.41
CN(Cc1cccs1)S(=O)(=O)c1cccs1	i	-0.06
O=C1NC2=C(C(=O)CCC2)C(c2ccc([N+](=O)[O-])cc2)N1 (stereo not drawn)	i	-0.06
C[C@H]1CCC[C@]2(CC(=O)c3cc(F)ccc3O2)C1	i	-1.8
Cn1cc(CN2CCCC(CO)C2)c(-c2ccc(Oc3ccccc3)cc2)n1 (stereo not drawn)	i	-0.73
COc1ccc(C)cc1NC(=O)CSc1nnc(-c2ccco2)n1Cc1ccco1	i	0.2
CCN(C(=O)Cn1nc(C)n2c(cc3cc(C)ccc32)c1=O)c1ccccc1	i	-0.79
COc1ccc(CNC(=O)c2c(F)c(F)c(F)c(F)c2F)cc1	i	0.01
CN(C)C(=O)c1nc2ccc(Cl)cn2c1CN1CCN(c2ncccn2)CC1	i	-0.39
O=C(NNC(=O)c1ccc(Cl)cc1Cl)c1ccncc1	i	0.09
COc1cccc(C(=O)NC2CC3CCCC(C2)N3S(=O)(=O)c2ccccc2)c1 (stereo not drawn)	i	-0.3
O=C(NCc1ccccn1)Nc1cccc(Cl)c1Cl	i	0.93
COc1ccc(NC(=O)COCC(=O)Nc2ccc(C)cc2)cc1	i	0.35
CCOC(=O)c1c(NC(=O)C(F)(OC)C(F)(F)F)sc2c1CCN(C)C2 (stereo not drawn)	i	0.17
N#Cc1cnn2cc(-c3ncc(C(F)(F)F)cc3Cl)cnc12	i	-3.1
C=CCn1c(SCC(=O)NCC(=O)OCC)nnc1-c1ccccn1	i	-1.9

(listing goes on)
SMILES	KCNQ2 block	KCNQ2 block baseline
CCc1ccccc1NS(=O)(=O)Cc1ccccc1	i	0.08
Cc1ccc(-c2nc3cc(N)ccc3o2)c(C)c1	i	1.3
O=C(COc1ccc(Cl)cc1)N1CCN(c2ncccn2)CC1	i	-2.5
O=C(CCc1nnc2ccc(NCc3ccc(Cl)cc3)nn12)NC1CCCCC1	i	0.17
O=C(CSc1nc2[nH]ncc2c(=O)[nH]1)Nc1ccc(Cl)c(Cl)c1	i	0.83
N#C/C(C(=O)NCc1ccccc1)=C1/SC(Cc2ccc(Cl)cc2)C(=O)N1c1ccccc1 (stereo not drawn)	i	-1.1
COc1ccc(OC)c(NC(=O)Cn2c(=O)n(CC3CCCO3)c(=O)c3cc(OC)c(OC)cc32)c1 (stereo not drawn)	i	1.8
Nc1nonc1-n1nnc(C(=O)N/N=C/c2ccc(OCc3ccccc3)cc2)c1CNc1ccccc1	i	-0.18
Cn1ncc(N=Cc2c(O)ccc3ccccc23)c1C(=O)N1CCOCC1	i	2
C=CCOc1ccc(CN(C)CC(=O)N(CC(C)C)c2c(N)n(CC(C)C)c(=O)[nH]c2=O)cc1	i	-0.59
Cc1ccc(C)c2[nH]c(=O)c(CN(Cc3nnnn3C3CCCCC3)CC3CCCO3)cc12 (stereo not drawn)	i	-1.6
COc1ccc(C(=O)c2c3ccccc3[n+]([O-])n2CCCN)cc1	i	-1
Cc1ccccc1OCC(=O)O/N=C(\N)c1ccncc1	i	-0.95
CCOc1ccc(/C=N/NC(=O)Cc2cccs2)cc1	i	0.64

These rows are one share of the data (hit frequency here may not be typical).
